UCH37 DUB inh: blocks the human deubiquitinase UCH37 | Q9Y5K5 | purified proteasome/UCH37, Ub-AMC cleavage fluorescence | inhibition, % (concentration not given with the values) | 330,000 compounds, 0.33% hits | AID 588478;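 active means mean of two replicates above 20%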;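 further: 0% = compound-free wells with enzyme and 100% = wells lacking proteasome; stock transfer was 100 nL into about 20 µL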
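Signal – fluorescence, ex 355 nm, em 460 nm · System – Proteasome-bound UCH37 · Input – 0.15 nM proteasome as dispensed · Timing – 30 min preincubation with enzyme, 25 min cleavage at room temperature · Read-out basis – percent inhibition of cleavage signal versus uninhibited and no-proteasome wells · Medium – Tris-HCl pH 7.4 with ATP-MgCl2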
Vif A3G: inhibitors of Vif binding to APOBEC3G peptide, primary screen, biochemical, TR-FRET, GST-Vif 1-94, biotin-A3G peptide, dose response retest (AID 1117319); 260,000 compounds, 0.57% hits; TR-FRET GST-Vif / biotin-A3G peptide binding; higher % means a stronger effect; test concentration not given here; strong numbers were not always called active; inhibition, %; hits with a dose series show IC50 in µM;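 active means above the screen mean plus three standard deviations and confirmed in dose response; inconclusive means results disagree or hit not tested in dose response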;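 further: Vif residues 1-94 fused to GST binding biotinylated APOBEC3G peptide 110-148; 0% = full assay without inhibitor and 100% = GST in place of GST-Vif; retest series ran down from 100 µM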
MLL AF4-AF9 inh: blocks AF4 peptide binding to human AF9; P42568; AlphaScreen, biotin-AF4 peptide binding to FLAG-AF9; inhibition, % at 10 µM; 350,000 compounds, 0.47% hits; AID 651704;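 active means every replicate reaching a set inhibition limit, whatever the replicate mean, cut at about 25% in these data; inconclusive means mean inhibition reaches that limit but some replicates miss it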;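 further: 0% = plate neutral control median and 100% = total signal loss; the record names both 10 and 1 µM as test concentration; the first replicate is given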
Target sequence (P42568 whole entry, looked up): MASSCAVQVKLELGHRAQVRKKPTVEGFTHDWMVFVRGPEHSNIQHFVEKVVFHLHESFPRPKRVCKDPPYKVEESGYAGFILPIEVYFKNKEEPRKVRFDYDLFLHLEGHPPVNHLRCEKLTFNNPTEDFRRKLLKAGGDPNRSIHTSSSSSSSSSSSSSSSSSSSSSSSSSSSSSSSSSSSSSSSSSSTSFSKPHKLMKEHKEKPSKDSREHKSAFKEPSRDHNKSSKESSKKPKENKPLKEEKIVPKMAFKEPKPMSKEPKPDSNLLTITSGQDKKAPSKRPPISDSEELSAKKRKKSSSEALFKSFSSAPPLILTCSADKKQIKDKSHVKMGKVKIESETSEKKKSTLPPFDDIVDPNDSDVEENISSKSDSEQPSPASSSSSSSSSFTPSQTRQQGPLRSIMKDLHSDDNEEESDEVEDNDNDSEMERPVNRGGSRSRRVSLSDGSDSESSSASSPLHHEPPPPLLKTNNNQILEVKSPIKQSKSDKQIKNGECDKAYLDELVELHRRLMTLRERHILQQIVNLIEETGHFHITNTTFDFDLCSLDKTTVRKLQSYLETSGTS
RanGTP-Impb inh: disruptors of Ran-importin-beta complex formation – biochemical, FRET, CFP-Ran, YFP-importin-beta, homogeneous, primary screen; 300,000 compounds, 1.1% hits; cell-free CFP-Ran/YFP-importin-beta FRET ratio; AID 2216; inhibition, % (no concentration beside the values);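 active means most replicates above 15%; inconclusive means exactly half above 15%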;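 further: 0% = DMSO wells and 100% = Ran loaded with GDP instead of GTP; wells of about 40 µL received 100 nL stock; the first replicate is given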
Ecoli growth: inhibitors of Escherichia coli growth | OD600, 23 h; hits give low values | OD600 absorbance (no concentration beside the values) | 330,000 compounds, 0.21% hits;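 active means OD600 absorbance below the run mean of sample wells minus 3.6 SD, in any replicate, cut at about 0.56 in these data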;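 further: stock transfer was 300 nL into about 60 µL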
FGF22 binding: shifts melting point of recombinant human FGF22 | Q9HCT0 | recombinant FGF22 thermal shift, SYPRO orange fluorescence; percent of sucrose octasulfate shift, DMSO zero | calls only at 9.99 µM | 340,000 compounds, 1.5% hits | AID 651658;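 active means melting point raised past a set limit in the mean and every replicate; inconclusive means no clear call; three in four hits are not shown here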
HNF4A DNA FP: change in binding of human HNF4 alpha to DNA; HNF4a-FITC DNA binding, fluorescence polarization, 1 h; activity change, % at 10 µM; 360,000 compounds, 0.3% hits; AID 1224865; in the data active means activity change above about 30%, passing the limit was not always enough;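 further: controls were the assay level and a saturating level of protein; the project sought stronger binding though the title names inhibitors; some compounds called inactive have numbers as strong as hits; positive values seem to mean higher polarization but the record does not say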
Target sequence (P41235 whole entry, looked up): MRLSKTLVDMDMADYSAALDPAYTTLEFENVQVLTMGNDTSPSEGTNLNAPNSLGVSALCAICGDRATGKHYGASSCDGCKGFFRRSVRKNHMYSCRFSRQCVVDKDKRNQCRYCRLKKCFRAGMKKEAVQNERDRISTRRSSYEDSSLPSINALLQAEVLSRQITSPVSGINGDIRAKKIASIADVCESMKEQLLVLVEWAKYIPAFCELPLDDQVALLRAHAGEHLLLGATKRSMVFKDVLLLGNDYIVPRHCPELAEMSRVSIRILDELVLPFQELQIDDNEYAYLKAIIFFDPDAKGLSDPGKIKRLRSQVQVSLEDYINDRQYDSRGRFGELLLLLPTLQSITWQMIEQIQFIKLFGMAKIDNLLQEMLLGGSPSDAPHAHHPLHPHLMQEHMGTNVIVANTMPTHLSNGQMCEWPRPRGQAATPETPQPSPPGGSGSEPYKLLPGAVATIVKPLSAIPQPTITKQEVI
An asterisk follows results filed as active; i = inactive; ? = inconclusive; . = no result given; & = joins results of further samples.

UCH37 DUB inh,Vif A3G,MLL AF4-AF9 inh,RanGTP-Impb inh,Ecoli growth,FGF22 binding,HNF4A DNA FP,smiles
1.6,.,-0.6,4.0,0.71,i,-0.2,COc1cc(S(=O)(=O)N(Cc2ccccc2)CC2CCCO2)ccc1-n1cnnn1 (stereo not drawn)
1.9,4%,.,1.4,0.68,.,4.1,O=C(NC1CCCC1)C(NS(=O)(=O)c1cccc2nsnc12)c1ccccc1 (stereo not drawn)
-1.6,0%,.,6.6,0.67,i,-0.1,Cc1cccc(C(=O)Oc2ccccc2C(=O)N2CCOCC2)c1
.,28%,7.6,8.1,.,i,-2.3,CCOC(=O)c1cc(CC)sc1/N=C/C1C(=O)CCCC1=O
.,6%,-1.3,.,.,i,0.8,N#Cc1cccc(C(Br)S(=O)(=O)c2ccccc2)c1 (stereo not drawn)
4.9,-7%,.,-0.9,0.66,.,0.6,CCOc1ccc2c(c1)c(N=O)c(O)n2C
.,-4%,-4.3,6.2,.,i,6.2,Cc1ccccc1S(=O)(=O)c1cc(C#N)c(=O)[nH]c1N
23*,12%,-1.6,-7.3,0.7,i,1.9,CCOc1cc(/C=C2\SC(=O)N(CC(=O)Nc3ccccc3F)C2=O)cc([N+](=O)[O-])c1O
0.6,4%,2.9,2.6,0.66,i,-3.1,Cc1cc(C)n(CC(O)CN(c2ccccc2)S(=O)(=O)c2ccc3ccccc3c2)n1 (stereo not drawn)
.,1%,-1.0,.,.,i,-9.9,CCN(CC)C(=O)C1=C(C)N(CCCN2CCCC2=O)C(=O)C(CC(=O)NCCCN(C)C)C1 (stereo not drawn)
-1.1,-15%,.,-0.5,0.77,.,-3.0,Cc1ccc(-c2nn3nnnc3c3ccccc23)cc1
-8.2,7%,.,-1.0,0.73,.,-3.2,CSc1cnc2c(N)nc(N(C)C)nc2n1
0.6,6%,.,4.0,0.63,.,-3.5,COc1ccc(-c2ccc(SCC(=O)N3c4ccccc4CC3C)nn2)cc1OC (stereo not drawn)
-1.1,.,-5.0,.,.,i,-6.2,CN(C)C(=O)N=NC(=O)N(C)C
-3.1,2%,.,0.6,0.77,.,8.3,Cc1ccccc1NC(=O)Nc1ccccc1C(=O)NCc1ccccc1
3.5,.,0.9,2.6,0.65,i,0.3,COc1ccc(-c2nc(CS(=O)CC(=O)NCc3ccc(Cl)cc3)c(C)o2)cc1OC (stereo not drawn)
5.7,.,-2.2,0.1,0.67,i,0.7,COc1ccc(-c2c(NC(=O)c3ccco3)oc3c(C)cccc3c2=O)cc1
3.1,-4%,-1.9,.,0.66,i,4.0,COc1cc(C(=O)NNC(=O)/C=C/c2ccccc2)cc(OC)c1OC
2.0,1%,1.7,-0.7,0.69,i,0.8,CCOC(=O)CSC1=C(C#N)C(c2ccc(C)s2)CC(=O)N1 (stereo not drawn)
0.9,-2%,1.9,-0.5,0.7,i,-6.5,COC(=O)c1ccc(CN(c2ccccc2Cl)S(C)(=O)=O)cc1
3.6,0%,-5.5,2.7,0.7,i,-3.6,Cc1ccc(S(=O)(=O)c2c(C)nn(C(C)(C)C)c2OC(=O)CC(C)C)cc1
1.8,-9%,-11,.,0.68,i,2.0,CCc1[nH]c(=O)[nH]c1C(C)S(=O)(=O)c1ccc(C)cc1 (stereo not drawn)
6.3,.,5.6,2.0,0.7,i,4.3,CCOC(=O)c1c(-c2ccc(C)cc2)csc1NC(=O)c1cc2ccccc2oc1=O
.,-7%,-1.5,.,.,i,-1.7,COC(=O)c1ccc2c(=O)n(CCN3CCOCC3)c(SCC(=O)Nc3ccccc3OC)nc2c1
-6.0,.,-2.2,2.5,0.67,i,-1.3,Cc1nc2ccc(NC(=O)c3ccco3)cc2nc1C
2.6,-1%,0.0,0.2,0.71,i,1.4,O=C(O)CSc1ccc2nnc(-c3cccnc3)n2n1
-1.0,.,-0.2,1.5,0.63,i,-2.1,CCc1ccc(CN2CCCC(CNC(=O)c3cc(OC)cc(OC)c3)C2)cc1 (stereo not drawn)
0.0,1%,-1.6,-4.0,0.63,i,-1.8,COc1ccccc1CNC(=O)COC(=O)c1ccc(C)c(S(=O)(=O)N2CCOCC2)c1
4.0,-2%,2.5,-0.6,0.72,i,-0.8,COc1ccccc1CC(=O)Nc1ncc(C)s1
-0.7,.,-0.6,0.0,0.62,i,2.8,COc1ccc(OC)c(NC(=O)Nc2cnccn2)c1
-1.1,.,-0.1,.,0.68,i,1.0,N#Cc1ccc(OCC(=O)N2CCN(S(=O)(=O)c3ccc(Cl)s3)CC2)cc1
0.9,0%,-2.4,1.9,0.74,i,1.5,O=C(Cn1ncc2c(=O)oc3ccccc3c21)NCC1COc2ccccc2O1 (stereo not drawn)
3.2,.,-2.7,1.3,0.7,i,-4.3,Cc1c(Cl)cccc1NC(=S)N1CCN(Cc2ccc3c(c2)OCO3)CC1
0.0,1%,.,1.9,0.7,.,-4.7,Cc1cccc(N2C(=O)C3C4C=CC(C4)C3C2=O)c1 (stereo not drawn)
4.6,5%,5.1,3.9,0.7,i,-3.9,Cc1ccc(Cn2c(O)c(N=O)c3ccccc32)cc1
-13,.,-4.7,-0.6,0.68,i,-0.3,CC(C)CCNC(=O)c1cc2c(s1)-c1ccccc1S(=O)(=O)C2
.,.,-4.1,.,.,i,-0.3,COc1ccc(-c2ccc(C(=O)NCc3ccc(F)c(F)c3)c3occc23)c(C)c1
1.1,4%,.,2.3,0.77,.,4.4,NNC(=O)CCS(=O)(=O)c1ccc2ccccc2c1
-27,22%,.,-2.7,0.71,.,-1.0,CCN(CC)C(=O)c1c2c(nc3ccccc13)-c1ccccc1CC2
-1.9,0%,4.7,1.9,0.68,i,-0.4,CCSc1nc2ccccc2n1CC(=O)N1CCOCC1
.,.,0.6,-1.3,.,i,-1.7,O=C(N/N=C/c1c(Cl)cccc1Cl)c1n[nH]c2c1CCCC2
1.2,6%,.,1.8,0.67,.,-3.4,CC(C)c1ccccc1NC(=O)COC(=O)c1ccc(Cl)c(S(=O)(=O)N2CCCCCC2)c1
1.5,3%,.,-0.3,0.69,.,3.5,Cc1csc(SCc2nnc(-c3ccc(Cl)cc3)o2)n1
-1.1,-10%,.,-0.5,0.74,.,-1.6,CCC(=O)Nc1nonc1-c1nc2ccccc2n1CC(C)C
.,.,-1.2&1.0&-0.4,.,.,i,-0.6,C[C@@H]1CN([C@@H](C)CO)C(=O)CCCn2cc(nn2)CO[C@H]1CN(C)C(=O)OCc1ccccc1
-3.9,.,-5.2,1.9,0.63,i,1.3,O=C(O)c1c(NC(=O)N2CCCC2)sc2c1CCCC2
.,.,1.4,.,.,i,4.9,Cc1nc(C(F)(F)F)ccc1C(=O)N1CCC1(C)C(=O)NS(=O)(=O)c1ccc(F)cc1F (stereo not drawn)
-2.4,-5%,.,-3.2,0.68,.,3.5,c1ccn2c(SCc3cn4ccsc4n3)nnc2c1
2.8,-1%,.,4.8,0.68,.,-6.1,CCC(C)NCCOCCOc1ccc(F)cc1 (stereo not drawn)
0.2,13%,-9.9,0.3,0.65,.,-3.9,CCOC(=O)Cc1nnc(NC(=O)C2CCCCC2)s1
1.7,4%,2.5,-0.3,0.63,i,2.5,Cc1ccc(OCCC(=O)Nc2ccccc2C(=O)N2CCCCC2)cc1
1.7,.,0.7,1.8,0.73,i,0.6,Cc1ccc(C)c(N2CCN(C(=O)CCS(=O)(=O)c3ccc4c(c3)NC(=O)C(C)S4)CC2)c1 (stereo not drawn)
.,-3%,.,0.7,.,.,0.0,C=CCc1ccc(OCCOc2cccc(/C=N/n3cnnc3)c2)c(OC)c1
-28,18%,.,?,.,.,-16,COc1cccc(CN2C(=O)c3cccc(N)c3C2=O)c1
2.7,3%,-6.2,-3.9,0.65,i,4.0,O=C(CSc1nc2scc(-c3ccccc3)c2c(=O)[nH]1)N1CCOCC1
.,-2%,1.4,1.1,.,i,-3.6,CCc1n[nH]c(=S)n1/N=C/c1ccc(N(CC)CC)cc1
1.8,6%,.,2.1,0.7,.,-5.0,NC(=O)c1ccsc1NC(=O)COC(=O)Cc1cccc2ccccc12
2.9,.,-0.1,.,0.68,i,-0.8,O=C(O)C1CCN(C(=O)CSc2nnc(-c3ccccc3)o2)CC1
4.6,27%,?,2.0,0.69,i,-2.2,O=C1C2C3C=CC(C2C(=O)N1c1ccc(O)cc1)C1C2C(=O)N(c4ccc(O)cc4)C(=O)C2C31 (stereo not drawn)
5.5,-6%,.,-1.7,0.7,.,1.7,CCOC(=O)c1cc2sccc2n1CC(=O)N1CCN(C(=O)c2ccco2)CC1

Additional compounds
UCH37 DUB inh,Vif A3G,MLL AF4-AF9 inh,RanGTP-Impb inh,Ecoli growth,FGF22 binding,HNF4A DNA FP,smiles
4.5,.,-2.4,.,0.7,i,3.1,Cc1ccc(COC(=O)c2cccc(S(=O)(=O)N3CCCCCC3)c2)cc1
1.9,.,-0.7,4.1,0.67,i,-0.3,COc1ccc(OC)c(S(=O)(=O)N2CCCC(C(=O)NCCN3CCOCC3)C2)c1 (stereo not drawn)
-3.2,.,0.9,-1.4,0.68,i,1.5,COc1ccnc(Oc2ccccc2)c1C(=O)N/C=N/OCc1ccccc1F
0.3,.,-7.4,-0.7,0.71,i,-2.3,CN(Cc1c(F)cccc1Cl)C(=O)c1ccc(COc2ccccc2)cc1
.,3%,.,4.2,.,.,0.1,O=C(N/N=C/c1ccncc1)c1ccccc1
.,19%,4.8,-2.9,.,i,-3.2,CCCOc1ccc(CCC(=O)N/N=C/c2ccc([N+](=O)[O-])o2)cc1
1.3,0%,-2.5,?,0.7,i,1.2,COc1ccc(Cc2n[nH]c(=S)o2)cc1
2.3,19%,4.7,6.0,0.66,i,-0.6,NS(=O)(=O)c1cccc(NC(=O)Nc2ccccc2)c1
-0.1,.,-0.9,-3.4,0.73,i,2.3,Cc1cccc(C(=O)NCC(=O)OCC(=O)c2ccc(Cl)s2)c1
.,-2%,.,2.6,.,.,1.5,N#CC1=C(N)Oc2n[nH]c(-c3ccc(F)cc3)c2C1c1cccnc1 (stereo not drawn)
0.3,.,0.7,-0.3,0.64,i,4.5,COC(=O)c1ccc(CSc2n[nH]c(C)n2)o1
4.1,.,-1.3,1.1,0.7,i,-5.7,C=CCOc1ccc(C(=O)Nc2ccccc2C(=O)N2CCCC2)cc1
5.7,2%,2.5,0.1,0.67,i,0.4,Cc1ccc(CCC(=O)Nc2ccc(Cl)cc2)o1
1.0,-1%,-0.9,.,0.72,i,-0.5,O=C(N[C@@H](CCC/[N+]([O-])=C/c1ccccc1)C(=O)O)OCc1ccccc1
-51,4%,.,.,0.7,.,3.4,O=C(O)c1ccc(N(c2ccccc2)c2ccccc2)cc1
1.0,.,.,-1.9,0.68,.,-1.8,CCCCN1C(=O)/C(=C(/C#N)C(N)=O)c2ccccc21
.,-4%,-1.5,-0.7,.,i,2.9,COc1cccc(/C=N/NC(=S)NCCc2ccccc2)c1
i,-3%,.,0.5,0.65,.,0.7,c1ccc2c(-c3nc4ncccc4o3)cccc2c1
2.2,.,-1.1,5.6,0.66,i,-0.5,COC(=O)c1ccc(CNC(=O)c2sccc2-c2ccccc2)cc1

Assay outcomes: PubChem BioAssay, several laboratories

Not all compounds are listed; count on the stated rates, not on these rows.
